# High-throughput results (PubChem)
# eIF4H inh – human eIF4H binding inhibitors, primary screen, translation initiation inhibitor project, biochemical, uHTS, fluorescence polarization | Eukaryotic translation initiation factor 4H (Homo sapiens), Q15056 | eIF4H fluorescence polarization binding assay | inhibition, % at 35 µM | hit rate 0.94% among 290,000 | AID 2012, 2009;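 active = 50% or more with normal probe brightness, or confirmed in later tests; inconclusive = above 50% with abnormal brightness, or retests that disagree; inactive = below 50% or failed in later tests; about a fifth of its hits are not listed in these tables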;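 note: calls also rest on retests at 20 µM and on dose response follow-up; 0% = protein and probe with vehicle and 100% = probe without protein; strong numbers were not always called active; many hits fall short of the cut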
# UUG fidelity – modulators of yeast start codon fidelity, primary screen, whole organism, S. cerevisiae, single point, plate reader; S. cerevisiae UUG-firefly luciferase reporter, luminescence/redox ratio; activity score, % at 18.7 µM; hit rate 0.13% among 350,000; AID 602363, 2012;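 active = replicate mean at a twofold rise or more, about +100% in these data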;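 note: firefly luciferase made from a UUG start codon reports start codon fidelity; reporter light over untreated wells divided by growth signal over untreated wells; some hits fall short of that in this replicate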
# Env fusion inh – inhibitors of HIV-1 Env-driven cell-cell fusion, primary screen, HeLa-JRFL effector, CEM21 target cells, luciferase; inhibition, % at 12.3 µM; AID 651610, 2012; hit rate 1.1% among 360,000;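 active = mean replicate inhibition score of at least 50 and every replicate individually at or above 50; inconclusive = only one of the two criteria met; inactive = mean below 50 and not all replicates reaching 50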;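 note: 0% = plate neutral controls and 100% = maraviroc near 300 nM; one replicate is shown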
# Rce1 inh – yeast Rce1p protease inhibitors, primary screen, biochemical, fluorescence, cell-free homogeneous; CAAX prenyl protease 2 (Saccharomyces cerevisiae (strain ATCC 204508 / S288c)), Q03530; yeast membranes, quenched prenylated peptide cleavage fluorescence; calls only; hit rate 0.27% among 290,000; AID 2563, 2010;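 active = fall in fluorescence gain of 50% or more versus controls, with final raw signal at or below 3038400; inconclusive = same 50% fall but final raw signal above 3038400; inactive = fall in fluorescence gain under 50%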;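 note: plate controls were neutral control wells for no effect and wells lacking membranes for full effect; tested at 10 µM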
# CSC inhib – cancer stem cell viability inhibitors, primary screen, luminescence; cancer stem cell-like cells viability; inhibition, % at 7.5 µM; hit rate 1.1% among 300,000;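 active = mean at 75% or more and at least half the replicates too; inconclusive = mean and replicates disagree; tested in HMLE shEcad cells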;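 note: 0% = median of negative and 100% = median of positive control wells; the first replicate is given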
# PABP FP inh – PABP poly(A) RNA binding inhibitors, primary screen, biochemical, fluorescence polarization, uHTS; inhibition, % at 35 µM; Polyadenylate-binding protein 1 (Homo sapiens), P11940; hit rate 1% among 290,000;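 active = 50% or more with normal probe brightness, or confirmed in later tests; inconclusive = above 50% with abnormal brightness, or retests that disagree; inactive = below 50% or failed in later tests; about a fifth of its hits are not listed in these tables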;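 note: calls also rest on retests at 20 µM and on dose response follow-up; controls were probe without protein and protein plus probe with vehicle; some compounds called inactive have numbers as strong as hits; many hits fall short of the cut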
# Target sequence (P11940 whole entry, looked up): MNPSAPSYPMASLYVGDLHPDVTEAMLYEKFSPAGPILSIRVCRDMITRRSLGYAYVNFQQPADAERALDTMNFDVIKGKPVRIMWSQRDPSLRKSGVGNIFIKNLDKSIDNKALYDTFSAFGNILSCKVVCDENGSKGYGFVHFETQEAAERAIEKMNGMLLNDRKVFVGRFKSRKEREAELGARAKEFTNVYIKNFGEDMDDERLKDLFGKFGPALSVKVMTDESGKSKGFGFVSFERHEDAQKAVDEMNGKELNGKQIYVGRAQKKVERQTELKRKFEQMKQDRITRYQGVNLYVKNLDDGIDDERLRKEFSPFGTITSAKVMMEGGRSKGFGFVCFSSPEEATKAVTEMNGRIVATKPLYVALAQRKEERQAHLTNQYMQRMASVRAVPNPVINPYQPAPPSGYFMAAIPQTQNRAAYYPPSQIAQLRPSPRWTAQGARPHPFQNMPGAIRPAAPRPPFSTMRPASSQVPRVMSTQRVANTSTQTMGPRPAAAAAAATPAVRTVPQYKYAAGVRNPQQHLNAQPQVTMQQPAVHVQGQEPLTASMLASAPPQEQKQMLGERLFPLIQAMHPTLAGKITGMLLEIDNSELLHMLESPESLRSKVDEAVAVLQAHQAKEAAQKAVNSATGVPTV
# MT1-MMP act inh – blockers of MT1-MMP proenzyme processing, primary screen, HT1080 RFP-PRO-GFP cells, GFP/RFP fluorescence; Matrix metalloproteinase-14 (Homo sapiens), P50281; GFP/RFP ratio fluorescence, overnight; percent of plate control window, DMSO zero; GFP/RFP ratio change, % at 20 µM; hit rate 0.061% among 360,000;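 active = GFP/RFP ratio change of at least 30% with cell ATP level not reduced by more than half and red fluorescence within 50% of control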; note: strong numbers were not always called active
#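 Assay system: HT1080 RFP-PRO-GFP cells | Dosing: 20 µM single dose, 1% DMSO | Incubation: Cells overnight before dosing, compound overnight, 37 °C, 5% CO2 | Evaluation: GFP/RFP fluorescence ratio | Control set: DMSO-only wells and HT1080 RFP-L50D-GFP cell wells as references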
# eIF4H inh retest – second read-out of eIF4H inh, no call of its own (marks repeat the call); inhibition, %; compound at 20 µM; confirmation average;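 mean of two retest wells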
# PABP FP inh retest – second read-out of PABP FP inh, no call of its own (marks repeat the call); inhibition, %; compound at 20 µM; confirmation repeats;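 mean of two retest wells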
# MT1-MMP act inh RFP – further read-out of MT1-MMP act inh, marked with its call; RFP signal change, %; measured here: RFP expression control read;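 0 = vehicle wells; hits needed this value within 50% of zero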
# Active calls of the source: *; i = inactive; ? = inconclusive; . = not tested or not shown; ! = not active in a repeat; [ ] = remark or other dose.
SMILES,eIF4H inh,UUG fidelity,Env fusion inh,Rce1 inh,CSC inhib,PABP FP inh,MT1-MMP act inh,MT1-MMP act inh RFP,others
CCc1ccc(-c2cn(-c3nc(C)cc(C)n3)c(=N)o2)cc1,-6,-22,-5,i,43,-1,3,-1,
COc1ccc(C(=O)NCc2ccncc2)cc1OC,1,.,4,.,-3,-5,1,2,
Fc1ccc(-c2cc(-c3nnc4n3CCCCC4)c3ccccc3n2)cc1,-6,-22,-12,.,-8,-2,2,4,
O=c1c2ccccc2ncn1-c1ccc(Cl)cc1[N+](=O)[O-],-5,.,-19,i,-10,-7,0,2,
N=C1/C(=C\c2ccc(SCc3ccco3)o2)C(=O)N=C2SC=NN12,?,-5,-13,i,5,?,-35,94,
CC1(C(=O)OCC(=O)Nc2ccc3ccccc3c2)CC1(Cl)Cl (stereo unspecified),2,2,13,i,-5,29,2,0,
Cc1c(Cl)cccc1NC(=S)NCc1ccc(F)cc1,2,-37,1,i,-13,-5,3,-2,
COc1ccc(NC(=O)CSc2nc3ccccc3c(=O)n2-c2ccc3c(c2)OCO3)c(OC)c1,6,-12,-51,i,13,4,-2,-4,
O=C(O)CNC(=S)N(Cc1ccccc1)Cc1ccccc1F,2,.,-12,i,-7,-14,-4,4,
Cc1nn(-c2ccccc2)c(Cl)c1/C=N/Nc1ccc(Cl)c(C(=O)O)c1,9,.,4,i,1,-2,-4,0,
Cn1ncc(C#N)c1/N=C/N1CCCCCC1,-1,-14,24,i,15,10,-8,-7,
Cc1csc(NC(=O)Cc2coc3cc(C)c(C(C)C)cc23)n1,-1,.,.,i,.,-9,-34,-31,
CCCC(=O)Nc1cccc(NC(=O)c2cccc([N+](=O)[O-])c2C)c1,5,.,11,i,1,-14,2,5,
Cc1onc(-c2c(F)cccc2Cl)c1C(=O)Nc1c(C)n(C)n(-c2ccccc2)c1=O,-8,3,.,i,-12,-7,9,4,
COc1ccc(CCN(Cc2cc3cc(C)ccc3[nH]c2=O)C(C)=O)cc1OC,-4,.,1,i,-8,1,-1,0,
Cn1ncc(N=Cc2c(O)ccc3ccccc23)c1C(=O)Nc1cccc(Cl)c1,?,.,-52,i,-3,12,-31,-2,
O=C(Nc1cccc(F)c1)C1CCCN(S(=O)(=O)c2ccc(-n3cnnn3)cc2)C1 (stereo unspecified),1,-20,8,i,-6,-8,-9,-12,
COc1ccc(-c2csc(NC(=O)[C@H](C)N3C(=O)C4CC=CCC4C3=O)n2)cc1OC (stereo partly specified),.,5,.,.,-5,.,2,-11,
O=S(=O)(c1ccccc1)N1CCN(Cc2ccccc2)CC1,-15,-8,6,i,-4,-1,2,2,
Cc1nc(NCCC(C)C)c2nnn(Cc3ccccc3)c2n1,0,-28,-24,i,30,9,1,-2,
CC1(C)NC(=O)N(CCOc2cccc(Oc3ccccc3)c2)C1=O,-1,1,.,i,15,-1,-4,-7,
COC(=O)c1cc(S(=O)(=O)NCCc2ccccc2)c[nH]1,0,-5,-4,i,21,-4,-1,1,
CC(=O)c1sc(NC(=O)c2ccc(Cl)cc2)nc1C,-9,.,-61,i,-6,-2,-9,-16,
COc1ccc(/C=C/C(=O)Nc2cc(S(=O)(=O)N3CCCCC3)ccc2N2CCCCC2)cc1OC,-7,-13,43,i,-13,-4,-3,-5,
Cc1cc(C(F)F)nn1CC(=O)NC1C(=O)N2C(C(=O)O)=C(CSc3nnnn3C)CSC12 (stereo unspecified),87,.,0,i,-2,-5,-1,9,eIF4H inh retest=-8;PABP FP inh retest=18
O=[N+]([O-])c1cc(C(F)(F)F)ccc1NCCc1c[nH]c2ccccc12,-6,.,-56,i,99*,-7,6,1,
COc1ccc(-n2c(C)cc(C(=O)CN3C(=O)NC4(CCc5ccccc54)C3=O)c2C)cc1 (stereo unspecified),-5,.,.,i,1,3,1,-9,
CN(C)c1nc(C(=O)OCCO)nc(N(C)C)n1,0,-12,-58,i,-1,-3,-1,0,
O=C(Nc1ccccc1)OC1CCCCc2cccnc21 (stereo unspecified),-6,2,-28,i,-7,-4,-1,2,
Cc1ccc(CN2CCN(Cc3ccc4ncccc4c3)CC2CCO)cc1 (stereo unspecified),-4,-7,17,i,-5,-4,0,0,
CNc1nc(C)c(C#N)c(-c2ccccc2)c1C(C)=O,-4,-15,.,i,3,6,-6,-4,
Cc1c(NC(=O)CSc2ccc(Cl)cc2)cccc1-c1nc2ncccc2o1,-10,-18,31,i,-8,5,2,-7,
COc1ccc(Cn2c(CCC(=O)O)nc3cccnc32)cc1,-6,8,-26,i,-10,0,4,7,
CC[C@]12c3[nH]c4cc(CCC(=O)N(C)C)ccc4c3CCN1C(=O)[C@@H](CC(=O)NCC13CC4CC(CC(C4)C1)C3)C[C@@H]2C(=O)N1CCN(C(=O)c2ccco2)CC1,.,5,-56,.,.,.,10,7,
CCc1ccc(NC(=O)C(=O)NCc2ccccn2)cc1,-9,.,-8,i,5,0,3,5,
NC(=O)C(Cc1ccccc1)N1C(=O)c2ccccc2C1=O (stereo unspecified),7,9,10,i,-2,-9,3,3,
COc1ccccc1C(=O)N1CC2(C)CC1CC(C)(C)C2 (stereo unspecified),-1,6,.,i,-6,1,-1,2,
COc1cccc(C2=CC(=O)C[C@H](c3ccc(OC)c(OC)c3)C2)c1,.,0,1,.,-9,.,-2,-12,
O=C(c1ccc(N2CCOCC2)c([N+](=O)[O-])c1)N1CCN(c2ccccc2F)CC1,.,-4,10,.,-13,.,-1,-2,
CC(C)(C)OC(=O)C[C@@H]1C/C=C\C[C@@H](CC(=O)N(CCO)Cc2ccccc2)C(=O)N2CCC[C@H]2COC1=O,.,21,-68,.,.,.,-2,3,
COC(=O)N/N=C(\C)c1ccco1,6,.,22,i,-5,8,2,6,
O=c1c(O)c(-c2ccc(O)c(O)c2)oc2cc(O)cc(O)c12,8,10,-1,i,37,18,-56,-14,
CN(C)S(=O)(=O)c1ccc(NC(=O)CN2CCC(Cc3ccccc3)CC2)cc1,1,-4,-31,i,.,-2,1,0,
CCOC(=O)c1c(C)[nH]c(C)c1S(=O)(=O)N(C)CC(=O)NCc1cccc(Br)c1,-9,-9,3,i,-1,2,1,-5,
CC(C)N(CC#CC(O)(c1ccccc1)c1ccccc1)C(C)C,0,.,15,i,-2,11,1,3,
COCCCn1c(SCc2cccc(C(F)(F)F)c2)nc2cc(OC)c(OC)cc2c1=N,-4,-16,36,i,83*,-6,-2,-14,
CCOC(=O)c1sc2nc(N3CCOCC3)c3c(c2c1N)CC(C(C)C)OC3 (stereo unspecified),-15,.,-13,i,11,2,0,2,
Cc1ccc(-n2ncc3c(SCc4cccnc4)ncnc32)c(C)c1,3,.,18,i,.,2,-5,-30,
CCn1c(CNC(=O)c2ccc3c(c2)OCO3)nnc1SCC(=O)Nc1cc(C)ccc1OC,1,3,.,i,-5,-9,1,-1,
C=CCNC(=S)NNC(=O)c1ccc(OCCCC)cc1,-5,-17,.,.,-8,-19,-2,-3,
Cn1nc([N+](=O)[O-])nc1N1CCOCC1,-3,-14,-18,i,-4,18,2,3,
COc1cccc(NC(=O)c2ccc[n+](C)c2)c1,.,-17,2,i,-4,.,-3,0,
COC(=O)c1cc(NC(=O)CN(c2ccccc2OC)S(=O)(=O)c2ccccc2)ccc1Cl,2,-1,.,i,-2,-7,8,-4,
COC(=O)[C@H]1C[C@@]2(O)CN(S(=O)(=O)c3ccc(C)cc3)C[C@@]2(OC(=O)NCc2ccccc2F)C[C@H]1C(=O)OC,.,24,14,.,.,.,1,1,
COCCNC(=S)Nc1ccc2nc(N3CCN(C)CC3)cc(C)c2c1,9,-13,9,i,20,6,2,1,
CCOCCn1c(=NC(=O)c2cc3ccccc3oc2=O)sc2cc(S(N)(=O)=O)ccc21,3,-9,-41,i,-6,-7,2,3,
Cc1cc(C)c2[nH]c(O)c(N=NC(=S)NCC3CCCO3)c2c1 (stereo unspecified),-8,-19,4,i,2,-14,12,2,
CCOC(=O)CNc1nc(Cl)nc(Nc2ccccc2)n1,4,.,-13,i,-9,1,3,4,
CCCN=C1N(C)C[C@@H]2[C@@H]3C(=O)N(C)C(=O)[C@@H]3[C@](C)(C(=O)OC)N12,.,-30,-5,.,.,.,4,3,
Cc1cc(NC(=O)c2ccc(C#N)cc2)on1,0,.,-21,i,-9,-3,1,1,

# (continued)
SMILES,eIF4H inh,UUG fidelity,Env fusion inh,Rce1 inh,CSC inhib,PABP FP inh,MT1-MMP act inh,MT1-MMP act inh RFP,others
Cc1ccc(S(=O)(=O)N(C)CCCC(=O)n2nc(C)cc2C)cc1,-11,7,-3,i,1,-2,-2,1,
O=C(CNC(=S)N(CCCN1CCOCC1)Cc1cccs1)NCc1ccccc1Cl,.,-10,5,i,-15,.,1,2,
Cc1nccn1CC(O)COc1ccc([N+](=O)[O-])cc1 (stereo unspecified),12,-10,-5,i,21,11,1,5,
O=C(O)c1ccc(NC(=O)c2cc3ccccc3o2)cc1,2,-28,1,i,-17,4,0,0,
CCOc1ccccc1N1CCN(C(=O)c2ccc3[nH]c4c(c3c2)CCCC4)CC1,-10,-1,-12,i,.,-10,1,-5,
Cc1ccc2sc(N3CCN(CCNC(=O)c4ccco4)CC3)nc2c1C,.,-7,-59,i,-7,.,4,-6,
CC1CCN(CC(C)OC(=O)c2ccco2)CC1 (stereo unspecified),-1,-24,6,i,0,1,1,4,
COc1ccc(N2CCN(C(=O)CSc3nnnn3C3CC3)CC2)cc1,.,-6,-2,.,.,.,-2,-2,
CCOC(=O)c1ccccc1NC(=O)COC(=O)c1c(CC)noc1C,.,-15,-173,i,-2,.,4,-2,
CSC(=S)N/N=C/c1ccc(N(C)C)cc1,-1,.,-3,i,.,?,-2,1,
O=C(O)Cn1cnc2sc3c(c2c1=O)CCCC3,0,.,-4,i,-19,-4,-1,3,
CC1(c2ccc3ccccc3c2)NC(=O)N(CC(=O)NCc2cccs2)C1=O (stereo unspecified),3,-4,-13,i,-10,1,1,3,
O=C(NCC1CCCO1)C(=O)c1c[nH]c2ccccc12 (stereo unspecified),-6,.,-9,i,-7,2,-2,-2,
Cc1nc(-c2ccc(S(=O)(=O)Nc3ccc(Br)cc3F)cc2)co1,0,-19,-1,i,-8,5,0,-1,
O=C(Nc1ccc(Cl)c(Cl)c1)N[C@@H]1CC[C@@H](CCn2cc(C3CCCCC3)nn2)O[C@@H]1CO,.,20,67*![16.7 µM],.,.,.,-2,-19,
Clc1ccc(-c2n[nH]c3c2Cc2ccccc2-3)cc1Cl,3,.,.,i,-10,1,.,.,
Cc1nc2ccccc2c(=O)n1/N=C/c1c(O)ccc2oc3c(c12)CCCC3,22*,.,.,i,82*,63*,-11,0,eIF4H inh retest=92*;PABP FP inh retest=97*
